Bioassay records as filed in PubChem.
CtBP-E1A blk: CtBP/E1A binding inhibition | AlphaScreen GST-E1A/His-CtBP binding, 1536-well; hits give low values; control for the full effect not named in the record | activity change, % (test concentration not listed) | 340,000 tested, 0.49% active; in the data active means activity change below about -65%; inconclusive means about -30% to -65%; inactive means above about -30%; note: % is set by controls: 0 for no effect and ±100 for the full control effect; compound concentration not given in the record
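AlphaScreen with 125 nM GST-E1A and 125 nM His-CtBP (5X stocks) in Tris pH 8.0, 300 mM NaCl, BSA, Tween 20, TCEP. Compounds preincubated 2 h at 37 deg C, then glutathione donor/nickel acceptor beads added for 1 h at 37 deg C in dark.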
gsp ag: gsp mutant agonism; gsp mutant cells, cAMP HTRF, 30 min; control for the full effect not named in the record; Potency, µM (top dose mostly 76.9 µM), inactives show at the highest dose activation (cAMP increase), actives largely listed as activators; 340,000 tested, 0.13% active; AID 624287; active = well fitted activation curve with a large enough effect; inconclusive = small, poorly fitted or top-dose-only effect, or another doubt; inactive = no such curve, though single readings can be large or run the other way; cell line not stated here;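 note: phosphodiesterase inhibitor Ro 20-1724 added with compounds to block cAMP breakdown; potency is the fitted concentration of half-maximal effect; nearly all actives have a fitted effect of over 60% in size; about a fifth of the inactives were tested at one dose only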
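Cells in DMEM/10% FBS with G418 were pretreated with compounds in DMSO plus […] (300 uM stock) for 30 min at 37C. cAMP was measured by HTRF (cAMP-d2 plus anti-cAMP antibody-K) after 30 min at room temperature.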
D2 ag: agonists of human D2 dopamine receptor (beta-arrestin); DiscoveRx PathHunter D2 beta-arrestin, luminescence, 90 min; 100% = 57 uM dopamine signal; activation, % (concentration not given with the values); P14416; AID 624465; 360,000 tested, 0.084% active; in the data active = activation above about 40%; inconclusive = about 15% to 40%; inactive = below about 15%; note: compound concentration not given in the record; the text of the record calls up to 30% inactive
Target sequence (P14416 whole entry, looked up): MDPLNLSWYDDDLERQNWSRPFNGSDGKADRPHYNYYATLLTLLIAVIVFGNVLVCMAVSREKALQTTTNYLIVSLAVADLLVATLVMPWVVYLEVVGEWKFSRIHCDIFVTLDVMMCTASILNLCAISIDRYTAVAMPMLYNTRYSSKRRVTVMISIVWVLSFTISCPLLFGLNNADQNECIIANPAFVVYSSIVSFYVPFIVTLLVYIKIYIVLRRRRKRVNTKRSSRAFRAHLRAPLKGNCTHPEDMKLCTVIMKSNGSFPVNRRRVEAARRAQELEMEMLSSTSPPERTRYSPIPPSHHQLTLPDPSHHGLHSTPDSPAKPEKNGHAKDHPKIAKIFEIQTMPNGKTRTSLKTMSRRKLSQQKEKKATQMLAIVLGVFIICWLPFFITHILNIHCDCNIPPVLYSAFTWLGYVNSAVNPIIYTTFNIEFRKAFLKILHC
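Agonist mode: compounds alone added to overnight-plated D2 PathHunter cells for 90 min at 37 C, with 57 uM final dopamine (EC100) defining full response. Beta-arrestin recruitment detected by chemiluminescent reagent, read after 1 h at ambient temperature.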
D2 PAM: human D2 receptor positive allosteric modulation; P14416; DiscoveRx D2 beta-arrestin cells, luminescence, 90 min; 100% = 57 uM dopamine signal; potentiation, % (no concentration beside the values); 360,000 tested, 0.23% active; active = potentiation of 50% or more; inconclusive = 30% to 50%; inactive = 30% or less;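 note: compound concentration not given in the record; tested on top of an EC20 dose of dopamine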
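D2 cells co-treated with compound plus 50 nM dopamine (EC20) for 90 min at 37 deg C to detect potentiation. Beta-arrestin recruitment was read as enzyme-fragment luminescence after 1 h at ambient temperature. Full response was set by 57 uM dopamine.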
Six1-Eya2 blk: Six1/Eya2 interaction inhibition; Q15475+O00167; activity change, % (test concentration not listed); AlphaScreen GST-Six1/His-Eya2 binding, biochemical; hits give low values; control for the full effect not named in the record; 360,000 tested, 0.56% active; in the data active = activity change below about -65%; inconclusive = about -30% to -65%; inactive = above about -30%; note: % is set by controls: 0 for no effect and ±100 for the full control effect; compound concentration not given in the record
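Homogeneous AlphaScreen proximity assay pairing GST-Six1 with His-tagged Eya2 (added as 5X mix: 250 nM and 500 nM) in 50 mM Tris pH 8.0, 300 mM NaCl, 1 mM TCEP. Glutathione donor and nickel acceptor beads; 1 h, 37 °C, dark.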
gsp antagonist: gsp mutant antagonism | gsp-mutant cells, cAMP HTRF, 30 min; control for the full effect not named in the record | Potency, µM (titrated, usually from 76.9 µM), without a hit: top-dose activity change, negative = inhibition, actives largely listed as inhibitors | AID 624288 | 340,000 tested, 0.4% active; active = falling curve of any shape with a large fitted effect; inconclusive = falling curve, mostly with a smaller effect; inactive = flat or rising curve; cell line not stated here;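 note: intracellular cAMP measured with PDE inhibitor Ro 20-1724 present during compound exposure; potency is the fitted concentration of half-maximal effect; % is set by controls: 0 for no effect and ±100 for the full control effect; nearly all actives have a fitted effect of over 65% in size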
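Cells in G418 medium, seeded 16-24 h, 37C; buffer exchange to DPBS + 1 mM CaCl2, 0.5 mM MgCl2, 0.05% BSA; cpds in DMSO + […] (300 uM stock), 30 min 37C; HTRF cAMP detection.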
Numbers without * were called inactive; ? = inconclusive; / = no result given; & = joins results of further samples; [ ] = dose if it differs, or a comment.

SMILES | CtBP-E1A blk | gsp ag | D2 ag | D2 PAM | Six1-Eya2 blk | gsp antagonist
O=C(COc1cccc2c1CCNC2=O)Nc1cccc(C(F)(F)F)c1 | 0 | -1%[15.4 µM] | -1.5 | -8 | 0 | 4%
Cc1cnc2cc(Cl)ccc2c1SCC(=O)O | / | 10µM* | -5.4 | 14 | 6 | -5%
CC(O)(c1ccc(F)c(F)c1)c1nc(-c2cc(F)cc(F)c2)cs1 (centres undefined) | 9 | / | 3.2 | 1 | 9 | /
COc1ccc(C(=O)N/N=C/C(=O)c2ccccc2)cc1 | -8 | -23% | -2.2 | -35 | -11 | -14%
CC(NC(=O)c1ccccc1)C(=O)OCC(=O)Nc1cccc(S(=O)(=O)N2CCCC2)c1 (centres undefined) | 19 | 12% | -0.4 | -13 | 0 | -4%
CCOc1ccc(NC(=O)CN2CCN(c3ccc(F)cc3)CC2)cc1 | 8 | 11% | 0.1 | -8 | -11 | 9%
CN1CCN(C(=O)c2cc(Oc3c(F)c(F)c(F)c(F)c3F)cc(C(=O)N3CCN(C)CC3)c2)CC1 | -8 | -4%[15.4 µM] | 2.9 | -1 | -1 | -5%
Cc1cc(Nc2ccc(Cl)cc2)nc(N)n1 | 6 | -30% | 1.2 | -9 | 0 | 14%
CC(=O)Nc1ccc(NC(=O)COC(=O)c2cc(S(=O)(=O)N3CCCC3)ccc2O)cc1 | -6 | 24% | -3.9 | -6 | 4 | -3%
COc1ccc(/C=C2\SC(=O)N(CCC(=O)N(C)C3CCS(=O)(=O)C3)C2=O)cc1 (centres undefined) | / | 1% | 4.0 | -2 | 3 | -17%
O=C(CCC(=O)c1ccccc1)Nc1cccnc1 | -1 | 22% | -3.2 | -26 | -4 | 5%
CCN(CC)C(C)C(=O)Nc1c2c(cc3c1CCC3)CCC2 (centres undefined) | -2 | -17% | 1.5 | -12 | 0 | 8%
Cc1cc(NC(=O)CSc2nccn2-c2cccc(C)c2C)no1 | 4 | -20%[15.4 µM] | 3.3 | 3 | -2 | -6%
O=C(C(=O)N1CCN(c2cccc(Cl)c2)CC1)c1cn(CC(=O)N2CCOCC2)c2ccccc12 | 2 | 8% | -1.2 | -8 | -5 | ?
CCOC(=O)Nc1cc(=O)c2ccccc2o1 | 3 | -27% | -0.6 | -11 | 0 | 14%
CC(=O)c1cn(CC(=O)Nc2cccc(C)c2C)c2ccccc12 | -3 | -8%[15.4 µM] | 3.0 | -2 | 3 | 1%
CCOc1[nH]n(-c2ccccc2)c(=O)c1C=NCc1cccnc1 | / | -11% | -2.7 | -1 | -5 | -25%
COc1cccc(NC(=O)CNC(=O)Cn2cnc3sc(C)c(C)c3c2=O)c1 | -18 | -2% | 1.9 | -11 | 4 | 3%
COc1ccc(-n2c(SCC(=O)Nc3cccc4ccccc34)nc(O)cc2=O)cc1 | -1 | 3%[15.4 µM] | 2.9 | -2 | 0 | -26%
CCc1ccc(-c2nn(-c3ccccc3)cc2CSC(=N)N)cc1 | 11 | 6% | -5.6 | -34 | 26 | 9%

A stretch taken from the entries so far, for reference:
SMILES | CtBP-E1A blk | gsp ag | D2 ag | D2 PAM | Six1-Eya2 blk | gsp antagonist
O=C(CCC(=O)c1ccccc1)Nc1cccnc1 | -1 | 22% | -3.2 | -26 | -4 | 5%
CCN(CC)C(C)C(=O)Nc1c2c(cc3c1CCC3)CCC2 (centres undefined) | -2 | -17% | 1.5 | -12 | 0 | 8%
Cc1cc(NC(=O)CSc2nccn2-c2cccc(C)c2C)no1 | 4 | -20%[15.4 µM] | 3.3 | 3 | -2 | -6%
O=C(C(=O)N1CCN(c2cccc(Cl)c2)CC1)c1cn(CC(=O)N2CCOCC2)c2ccccc12 | 2 | 8% | -1.2 | -8 | -5 | ?

Later entries.
SMILES | CtBP-E1A blk | gsp ag | D2 ag | D2 PAM | Six1-Eya2 blk | gsp antagonist
CC(=O)c1ccc(N(C(=O)CNC(=O)c2ccco2)C(C(=O)NC2CCCC2)c2ccco2)cc1 (centres undefined) | 3 | 18%[15.4 µM] | -4.8 | 4 | 5 | 5%
CCCCC1CCCC12NC(=O)NC2=O (centres undefined) | 5 | 8%[15.4 µM] | -0.8 | -3 | 4 | -1%
COC(=O)CNC(=O)C1Nc2ccccc2C2C=CCC12 (centres undefined) | -7 | -43%[inhibitor] | 5.8 | 22 | -2 | 0%
Clc1ccccc1-c1ccc(CN2CCN(c3ccccc3)CC2)o1 | -10 | 15% | -1.5 | -14 | -23 | -8%
CCOC(=O)c1cccc(NC(=O)C2CCCN(S(=O)(=O)c3cnc[nH]3)C2)c1 (centres undefined) | -21 | 16% | -4.1 | -7 | 1 | -1%
CCOC(=O)c1cn(CC(=O)Nc2ccc(OC)cc2OC)nn1 | / | -23% | -5.3 | -3 | 3 | 4%
O=C(C1c2ccccc2Oc2ccccc21)N1CCN(c2ccc(Cl)cc2)CC1 | -6 | -23% | -4.9 | 1 | -13 | -12%
CCOc1ccc(N(CC(=O)N2CCCCCC2)S(=O)(=O)c2ccc(C)cc2)cc1 | 3 | 0%[15.4 µM] | -4.6 | -14 | 6 | -5%
CC(C)Cn1c(=O)c2ccccc2n2c(SCC(=O)N3c4ccccc4CC3C)nnc12 (centres undefined) | 0 | -40%[inhibitor] | -1.6 | -10 | 18 | -13%
CCC(=O)c1ccc(OCC(O)CN2CC(C)OC(C)C2)cc1 (centres undefined) | -12 | -43%[inhibitor] | -1.5 | -25 | -6 | 12%

Looked up above.
`COC(=O)CNC(=O)C1Nc2ccccc2C2C=CCC12` (centres undefined) | D2 PAM = 22
`CCOC(=O)c1cn(CC(=O)Nc2ccc(OC)cc2OC)nn1` | gsp ag = -23%
`Clc1ccccc1-c1ccc(CN2CCN(c3ccccc3)CC2)o1` | CtBP-E1A blk = -10

Continuation.
SMILES | CtBP-E1A blk | gsp ag | D2 ag | D2 PAM | Six1-Eya2 blk | gsp antagonist
COC1CC(N)C2OC(c3ccccc3)OCC2O1 (centres undefined) | 0 | -3% | -4.3 | -11 | 14 | /
Cc1ccc(-c2nn3c(C)nnc3c3ccccc23)cc1S(=O)(=O)NC(C)(C)CO | 2 | 14%[15.4 µM] | -0.9 | -5 | -3 | -4%
Cc1cccc(N2CCN(C(=O)COc3cc4oc(=O)cc(C)c4cc3Cl)CC2)c1C | 1 | -32%[inhibitor] | -2.6 | -9 | 1 | -12%
COc1ccc(/C=C2\Oc3ccccc3C2=O)cc1 | -1 | / | 0.6 | -12 | 0 | -10%
Cc1cc(S(=O)(=O)N2c3ccc(F)cc3CCC2C)ccc1-n1cnnn1 (centres undefined) | -8 | -1% | -3.7 | 0 | 6 | -5%
Cc1nn(C)c(C)c1C(C)NC(=O)c1cc(COc2ccc(F)c(F)c2)on1 (centres undefined) | 1 | ? | 0.2 | -9 | 1 | -4%
CCOC(=O)N1CCN(C(=O)c2cccc(S(=O)(=O)Nc3ccc(F)cc3)c2)CC1 | -26 | -24% | -2.6 | 19 | 3 | 0%
Cc1nc(C)c(-c2csc(Nc3cccnc3)n2)s1 | -11 | 9% | -2.3 | -10 | ? | 1%
N#CCSc1nc2ccccc2c(=O)n1-c1ccccc1 | -6 | 6% | 4.2 | 4 | 5 | 9%
Cc1ccc(S(=O)(=O)n2cc(C=O)c3ccccc32)cc1 | -18 | 23% | -2.7 | -18 | -14 | -13%
Cc1ccc(NC(=O)Nc2ccc3c(c2)OCO3)c(Br)c1 | 5 | 23% | -5.5 | 8 | 5 | 7%
O=C(Nc1ccc(N2CCOCC2)cc1)c1ccncc1 | 8 | -1% | 4.2 | 7 | 8 | -4%
Cc1ccccc1CSCCC(=O)NCCc1ccccc1 | 0 | -5% | 0.4 | -5 | -5 | -9%
COc1ccc(NC(=O)Nc2ccc3c(c2)C(=O)N([C@H](C)CO)C[C@H](C)[C@@H](CN(C)C(=O)Nc2ccc(OC)cc2)O3)cc1 | -3 | 4% | -1.9 | 2 | -8 | -4%
O=S(=O)(NCc1cn2ccsc2n1)c1cccs1 | 1 | 0% | -3.9 | -8 | -8 | 3%
CC(C)(C)c1ccc(S(=O)(=O)N(CCCN2CCOCC2)Cc2cccs2)cc1 | -8&-12 | 6% | -1.9&0.3 | -18&-37 | -13&-9 | -3%&10%
CC1=C(C#N)C(=O)N(C)C(C)(C)C1 | 0 | -22% | -1.2 | -17 | -2 | 13%
COCCCNC(=S)NCCCNc1nc2cc(C)cc(C)c2cc1C#N | 0 | -22% | 1.1 | -6 | 5 | -13%
O=C(COC(=O)C1CCC1)Nc1ncc(Cl)cc1Cl | -1 | 15%[15.4 µM] | -2.0 | -14 | 2 | 4%
COC(=O)c1c(C(=O)OC)c(-c2cccc(Cl)c2)n2c1CS(=O)(=O)C2 | / | -15% | -5.3 | -4 | -8 | 0%
O=C1CN(S(=O)(=O)c2ccc(F)cc2)c2ccccc2N1 | 7 | 1% | -1.7 | -1 | 0 | 4%
C/C(=N\NC(=O)c1cccc(S(=O)(=O)N2CCCC2)c1)c1cccs1 | 12 | -5%[15.4 µM] | -10 | -8 | 2 | -5%
O=C(C1CCCN(S(=O)(=O)c2ccc(Br)s2)C1)N1CCCCCC1 (centres undefined) | -1 | -24% | -1.6 | -19 | -2 | -10%
CCOCCCNC(=O)CCC(=O)NNc1nc2ccccc2c2nc(C)nn12 | / | 16% | -5.1 | -4 | -2 | -23%
CCc1ccc(NC(=O)CC2S/C(=N/N=C3CCCCCC3)NC2=O)cc1 (centres undefined) | -15 | 3% | 0.1 | -20 | -14 | -13%
CC1(C)CC(NC(=O)c2ccncc2)CC(C)(C)N1O | / | -30% | 0.0 | -8 | 11 | 0%
Cc1ccc(C2(c3noc(CN(C)Cc4cnn(C)c4)n3)CCCC2)cc1 | -4 | -15%[15.4 µM] | -4.3 | -10 | 0 | 10%
O=C(O)c1ccc(OCC(O)Cn2cnc3ccccc32)cc1 (centres undefined) | 0 | 14% | 0.5 | -13 | 0 | 15%
Cc1oc(S(=O)(=O)N2CCCC2)cc1C(=O)Nc1ccc(F)cc1 | 1 | 4%[15.4 µM] | -3.1 | -3 | 0 | 2%
Cc1ccccc1CN1C[C@@H]2C[C@@H](c3cnc(N4CCOCC4)s3)N3CCC[C@@]23C1=O | / | -12% | 0.6 | -7 | 3 | -6%
Cc1ccc(N(CC2CO2)S(=O)(=O)c2ccc([N+](=O)[O-])cc2)cc1 (centres undefined) | -2 | -2%[15.4 µM] | -2.4 | 16 | -6 | -1%
